Screening data from PubChem.
B2AR ag: human beta-2 adrenergic receptor agonism by FAP | P07550 | Am2.2-beta2AR cells, FAP receptor internalization, flow cytometry; reference of the scale not given here | response, % (no concentration beside the values) | hit rate 0.43% among 340,000;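 active = response above a set limit, near 3 SD of response in nonfluorescent compounds, cut at about 42% in these data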;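 also: stock transfer was 100 nL into about 11 µL; a reference agonist was the positive control; negative values mostly stem from fluorescent compounds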
Target sequence (P07550 whole entry, looked up): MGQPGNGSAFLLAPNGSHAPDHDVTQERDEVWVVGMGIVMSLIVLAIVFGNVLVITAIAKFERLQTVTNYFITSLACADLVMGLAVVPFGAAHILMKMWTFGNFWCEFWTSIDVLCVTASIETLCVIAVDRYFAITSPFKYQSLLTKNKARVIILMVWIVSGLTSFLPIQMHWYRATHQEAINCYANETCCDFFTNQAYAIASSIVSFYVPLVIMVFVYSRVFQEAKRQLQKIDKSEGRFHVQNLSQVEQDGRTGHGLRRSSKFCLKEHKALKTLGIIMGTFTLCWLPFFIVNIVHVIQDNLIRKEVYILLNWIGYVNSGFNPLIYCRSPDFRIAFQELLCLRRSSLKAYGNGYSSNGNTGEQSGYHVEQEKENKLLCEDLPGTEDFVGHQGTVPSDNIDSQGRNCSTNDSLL
T cruzi inh: blocks replication of Trypanosoma cruzi; hit rate 1.4% among 300,000; inhibition, % (concentration not given with the values); T. cruzi beta-gal in NIH3T3, luminescence, 90 h; AID 1885;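 active = mean inhibition across valid replicates above about 55%, limit read from the data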;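 also: signal also drops with host cell toxicity which is not excluded here; 0% = plate median of DMSO wells and 100% = zero luminescence signal; higher percent means less beta-gal luminescence so fewer parasites; stock transfer was 50 nL into about 50 µL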
rRNA inh HTS: inhibitors of bacterial rRNA selective over humanized ribosomes | hit rate 1.6% among 350,000 | GFP signal change (wild-type ribosome), % (test concentration not listed) | AID 720706 | E. coli WT GFP vs humanized-ribosome RFP mutants, fluorescence, 24 h; hits give low values; DMSO median 0, no signal -100;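 active = significant combined selectivity score with lowered wild-type GFP, culture density cut under 30%, mutant RFP and density less affected; inactive = any of these conditions unmet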; also: one replicate is shown; some compounds called inactive have numbers as strong as hits
Calb FLC: affects C. albicans growth with fluconazole; C. albicans CaCi-2 (fluconazole-resistant clinical isolate) + fluconazole, Alamar Blue growth, 48 h; growth inhibition, % (no concentration beside the values); hit rate 0.57% among 300,000;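 active = most replicates above 75%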;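 also: all wells also contain fluconazole at 8 µg/ml as a sub-toxic cotreatment; 0% = median of DMSO wells and 100% = median of geldanamycin control wells; wells of about 8 µL received 7.5 nL stock; the first replicate is given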
rRNA inh HTS OD600: also measured in rRNA inh HTS; calls as there; OD600 change, %; measured here: OD600 growth;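 optical density of the mix in the first replicate; 0 = DMSO median and -100 = no signal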
rRNA inh HTS RFP: second read-out of rRNA inh HTS, no call of its own (marks repeat the call); RFP signal change, %; measured here: RFP humanized mutant strains;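 first replicate; 0 = DMSO median and -100 = no signal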
The depositor's hits bear a star; x = not tested or not shown; & = joins results of further samples. A portion of the library. The share of hits here may be higher or lower than overall.

SMILES | B2AR ag | T cruzi inh | rRNA inh HTS | rRNA inh HTS OD600 | rRNA inh HTS RFP | Calb FLC
COc1ccc([C@H]2C(C(=O)O)=C[C@@H](CC3CCCC3)N2S(=O)(=O)c2ccc(C)cc2)cc1OC | 16 | x | -6 | -7 | 3.4 | x
ON(CCc1ccccn1)Cc1ccccc1 | 3 | x | 4 | -1 | 0.1 | x
COc1ccc2c(COC(=O)c3ccc(C)c(S(=O)(=O)N4CCOCC4)c3)cc(=O)oc2c1 | 1 | x | -2 | -8 | 2.4 | x
CCC1(CC(C)C)SC(N)=NC1=O (stereo unspecified) | 1 | x | 6 | 14 | -1.2 | x
Cc1cc(OCC(=O)OCC(=O)NCC2CCCO2)ccc1Cl (stereo unspecified) | 15 | x | 3 | 6 | -1.1 | x
Cc1ccccc1-c1cccc([C@@H]2C[C@H]3[C@H](CON3C)CN2C(=O)C(C)(C)C)c1 | -9 | x | -1 | 5 | 1.2 | x
COc1ccc(S(=O)(=O)Nc2cccc(S(=O)(=O)N(C)C)c2)cc1[N+](=O)[O-] | -6 | x | 4 | 2 | -3.1 | x
C[C@H](CO)N1C[C@H](C)[C@@H](CN(C)CC2CC2)Oc2c(NS(=O)(=O)c3ccc(F)cc3)cccc2C1=O | 5 | x | -1&2 | 1&4 | 0.3&-1.7 | x
COc1cccc(CN(C)C(=O)c2ccc(Cl)c(S(=O)(=O)N3CCCCCC3)c2)c1OC | 17 | x | -22 | -36 | -5.0 | x
Nc1c(N(CCC2=CCCCC2)C(=O)COc2ccc(F)cc2Cl)c(=O)[nH]c(=O)n1Cc1ccccc1 | 4 | x | 6 | 14 | 0.4 | x

Rewritten with values under each structure: part of the list above
Sequence of screens – B2AR ag, T cruzi inh, rRNA inh HTS, rRNA inh HTS OD600, rRNA inh HTS RFP, Calb FLC
> Cc1ccccc1-c1cccc([C@@H]2C[C@H]3[C@H](CON3C)CN2C(=O)C(C)(C)C)c1
  -9, x, -1, 5, 1.2, x
> COc1ccc(S(=O)(=O)Nc2cccc(S(=O)(=O)N(C)C)c2)cc1[N+](=O)[O-]
  -6, x, 4, 2, -3.1, x

Continuation:
SMILES | B2AR ag | T cruzi inh | rRNA inh HTS | rRNA inh HTS OD600 | rRNA inh HTS RFP | Calb FLC
O=C(/C=C/c1ccccc1)COC(=O)c1ccccc1 | 10 | x | 6 | 3 | 0.0 | x
CC(C)c1cc(NCCN2CCOCC2)n2c(nc3ccccc32)c1C#N | -13 | x | 7 | 1 | -2.2 | x
NC(=Nc1ccccc1)N(c1ccccc1)c1ccccc1 | -5 | x | -3 | 2 | 0.1 | x
COc1ccc2[nH]c3c(c2c1)CCN1C(=O)C(CC(=O)NCCCN(C)C)C[C@H](C(=O)N(C(C)C)C(C)C)[C@@]31C (stereo partly specified) | 1 | x | 10 | 3 | -3.9 | x
CC(C)(CCc1ccccn1)C(=O)C(CCc1ccccn1)CCc1ccccn1 | -13 | x | -25 | -29 | -1.6 | x
O=[N+]([O-])c1cc(-c2cccnc2)n[nH]1 | -3 | x | -2 | 9 | -1.6 | x
OC(CCCC(O)c1ccccc1)c1ccccc1 (stereo unspecified) | -2 | x | 13 | 10 | 2.8 | x
CC(C)(C)C(=O)NCc1ccc(C(=O)CSc2nnc(-c3ccncc3)n2C2CC2)s1 | 2 | x | 7 | 15 | -2.0 | x
CN(C)c1ccc(/C=C/C(=O)c2ccc(O)cc2)cc1 | -80 | x | -37 | -62 | -17 | x
COc1cc(CN(C)C(=O)C2CCN(S(=O)(=O)c3cccs3)CC2)ccc1OC(F)F | -5 | x | -8 | -16 | 5.1 | x
O=Cc1c[nH]c2cccc(OCc3ccccc3)c12 | 22 | x | 4 | 6 | -1.4 | x
COCCCn1c(SC(C)C(=O)Nc2c(C)n(C)n(-c3ccccc3)c2=O)n[nH]c1=O (stereo unspecified) | 2 | x | -1 | 12 | 1.4 | x
CCc1sc(C(=O)N(CCCOC)c2c(N)n(CC(C)C)c(=O)[nH]c2=O)cc1C | -4 | x | 4 | 9 | -2.4 | x
CC(=O)Nc1ccc(S(=O)(=O)NCCC(=O)OCC(=O)c2cc(C)ccc2C)cc1 | 5 | x | 0 | -4 | 1.7 | x
Cc1ccc(S(=O)(=O)N2CCCCC2)cc1NC(=O)COC(=O)CN1C(=O)NC2(CC(C)CC(C)(C)C2)C1=O (stereo unspecified) | -2 | x | -3 | 9 | -3.3 | x
Cc1cccc(NS(=O)(=O)c2ccc(C)c(C(=O)NC3CCN(Cc4ccccc4)CC3)c2)c1 | 8 | x | 0 | -11 | 3.7 | x
O=C(O)c1ccc(C=NN=C2c3ccccc3-c3ccccc32)cc1 | -3 | x | 0 | 4 | -1.4 | x
CCC(=O)Oc1ccc(C(CC)C(CC)c2ccc(OC(=O)CC)cc2)cc1 (stereo unspecified) | -2 | -1 | 4 | 10 | -1.0 | x
O=S(=O)(c1ccccc1C(F)(F)F)N1C=CC(C(F)(F)F)=NCC1 | -2 | x | 14 | 13 | 6.2 | 1
Cc1nc2ccc(NC(=O)COc3ccccc3)cc2s1 | 11 | x | 5 | 11 | 1.5 | 108*

Some of these compounds in order of SMILES length, low to high:
SMILES | B2AR ag | T cruzi inh | rRNA inh HTS | rRNA inh HTS OD600 | rRNA inh HTS RFP | Calb FLC
O=[N+]([O-])c1cc(-c2cccnc2)n[nH]1 | -3 | x | -2 | 9 | -1.6 | x
CC(C)(C)C(=O)NCc1ccc(C(=O)CSc2nnc(-c3ccncc3)n2C2CC2)s1 | 2 | x | 7 | 15 | -2.0 | x
COCCCn1c(SC(C)C(=O)Nc2c(C)n(C)n(-c3ccccc3)c2=O)n[nH]c1=O (stereo unspecified) | 2 | x | -1 | 12 | 1.4 | x

Compound profiles, as listed above.
Record of O=Cc1c[nH]c2cccc(OCc3ccccc3)c12 = B2AR ag: 22; T cruzi inh: x; rRNA inh HTS: 4; rRNA inh HTS OD600: 6; rRNA inh HTS RFP: -1.4; Calb FLC: x
Record of CC(C)(C)C(=O)NCc1ccc(C(=O)CSc2nnc(-c3ccncc3)n2C2CC2)s1 = B2AR ag: 2; T cruzi inh: x; rRNA inh HTS: 7; rRNA inh HTS OD600: 15; rRNA inh HTS RFP: -2.0; Calb FLC: x

Looked up above.
O=Cc1c[nH]c2cccc(OCc3ccccc3)c12 in rRNA inh HTS = 4
CC(=O)Nc1ccc(S(=O)(=O)NCCC(=O)OCC(=O)c2cc(C)ccc2C)cc1 in rRNA inh HTS = 0
COCCCn1c(SC(C)C(=O)Nc2c(C)n(C)n(-c3ccccc3)c2=O)n[nH]c1=O (stereo unspecified) in rRNA inh HTS OD600 = 12
